Screening results: PubChem, National Center for Advancing Translational Sciences (NCATS)
AmpC nodet inh: blocks E. coli AmpC beta-lactamase in absence of detergent | AmpC nitrocefin hydrolysis, absorbance 480 nm, no detergent; potencies from a single point are estimates | Potency, µM (top dose mostly 28.7 µM), without a hit: top-dose activity change, negative = inhibition | P00811 | 1.8% of 71,000 active | AID 585; active = falling curve, for most hits resting on a single point; inconclusive = weak or doubtful change; inactive = flat or rising curve; also: % of control where 0% means no effect; about half of the hits show no inhibition at the top dose; a quarter of the inactives give rising signals
Target sequence (P00811 whole entry, looked up): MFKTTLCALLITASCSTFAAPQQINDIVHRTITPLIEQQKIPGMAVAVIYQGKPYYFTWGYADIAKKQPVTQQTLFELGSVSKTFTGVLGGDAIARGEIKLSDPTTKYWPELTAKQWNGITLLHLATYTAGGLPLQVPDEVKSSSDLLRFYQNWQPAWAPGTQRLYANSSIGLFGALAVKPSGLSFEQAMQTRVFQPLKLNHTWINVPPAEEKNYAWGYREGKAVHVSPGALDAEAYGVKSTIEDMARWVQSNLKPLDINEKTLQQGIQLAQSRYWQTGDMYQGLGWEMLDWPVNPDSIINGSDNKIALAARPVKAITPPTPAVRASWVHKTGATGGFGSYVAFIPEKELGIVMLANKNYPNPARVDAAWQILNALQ
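AmpC in 20 mM phosphate buffer pH 7.0 was preincubated 15 min at room temperature with compounds. Nitrocefin (800 uM stock) was then added and hydrolysis followed at 480 nm every 20 s for 4 min.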
Numbers without * were called inactive; ? = inconclusive; & = joins results of further samples; [ ] = dose if it differs, or a comment. Potency is read from the fitted curve at half-maximal effect. Not all compounds are listed; count on the stated rates, not on these rows.

The opening 5 entries as a preview:
SMILES | AmpC nodet inh
CCCOc1ccc(C(=O)N2CCN(c3ccc(N)cc3Cl)CC2)cc1 | 39.1%
Cc1ccc(S(=O)(=O)Nc2nc3ccccc3nc2NCc2ccco2)cc1C | -2.8%
O=C(CCCCn1c(=O)[nH]c2ccccc2c1=O)NCc1ccc2c(c1)OCO2 | -13.4%
CCCNC(=O)N1CCN(S(=O)(=O)c2ccc(C)c(C)c2)CC1 | 14.0%
C[N+](C)(C)CCCCCCCCCC[N+](C)(C)C | -5.1%[12.8 µM]

All compounds of this part (from the top)
SMILES | AmpC nodet inh
CCCOc1ccc(C(=O)N2CCN(c3ccc(N)cc3Cl)CC2)cc1 | 39.1%
Cc1ccc(S(=O)(=O)Nc2nc3ccccc3nc2NCc2ccco2)cc1C | -2.8%
O=C(CCCCn1c(=O)[nH]c2ccccc2c1=O)NCc1ccc2c(c1)OCO2 | -13.4%
CCCNC(=O)N1CCN(S(=O)(=O)c2ccc(C)c(C)c2)CC1 | 14.0%
C[N+](C)(C)CCCCCCCCCC[N+](C)(C)C | -5.1%[12.8 µM]
OCc1nc2ccccc2n1C/C=C/c1ccccc1 | 39.1%
CC1(C)CC(=O)C(C(C2=C(O)CC(C)(C)CC2=O)c2cccc(O)c2)C(=O)C1 (stereo unspecified) | 5.9%
COC(=O)c1ccccc1NC(=O)c1ccc2c(c1)OCCO2 | 12.0%
CC(C)[C@@H](CC(=O)N[C@@H]1CCNC[C@H]1C(=O)N[C@H](CC(=O)N[C@@H](CCC(=O)O)CC(=O)O)Cc1c[nH]c2ccccc12)NC(=O)C[C@H](Cc1c[nH]c2ccccc12)NC(=O)[C@@H]1CNCC[C@H]1N | 120.4%
CCOC(=O)c1[nH]c(C)c(/C(O)=C2\C(=O)C(=O)N(CCCN(CC)CC)C2c2cccnc2)c1C (stereo unspecified) | -1.6%
O=C(c1ccc(Cl)c(Cl)c1)N(Cc1ccco1)c1ccc(O)cc1 | -9.7%
O=C(/C=N/O)NCc1ccncc1 | -4.7%
COc1ccc2c(c1)c(CC(=O)O)c(C)n2Cc1ccc(F)cc1 | -13.5%
Cc1c(C)c2cc3c4c(oc3c(C)c2oc1=O)CCCC4 | 64.3%
CC1(C)OC(=O)C(=CNc2ccc(F)cc2)C(=O)O1 | 5.6%
NCCC[C@@H](CC(=O)N[C@@H]1CCCC[C@H]1C(=O)N[C@H](CC(=O)N[C@@H](CCC(=O)O)CC(=O)O)Cc1c[nH]c2ccccc12)NC(=O)C[C@H](Cc1ccccc1)NC(=O)[C@@H]1CCCC[C@H]1N | 157.6%
CC(NC(=O)C1C(=O)N(CCO)C2(C)CC1c1ccccc1O2)c1ccccc1 (stereo unspecified) | 17.5%
O=C(COc1ccc2ccc(=O)oc2c1)Nc1ccc2c(c1)OCCO2 | -11.0%
O=C(CNS(=O)(=O)c1cccs1)N1CCC2(CC1)OCCO2 | 1.8%
CC(=O)Nc1ccc(S(=O)(=O)N2CCC(NC(=O)c3ccco3)CC2)cc1 | -13.0%
COc1ccc(S(=O)(=O)Nc2ccccn2)cc1OC | 2.8%
COc1ccc(C(=O)Nc2ccccc2C(=O)NCCN2CCOCC2)cc1 | 17.9%
Cc1cc(C)n(CCc2nc(-c3cccs3)cs2)n1 | 27.3%
CCC1(C(=O)O)NC(c2cccc(OC)c2O)C2C(=O)N(c3ccccc3)C(=O)C21 (stereo unspecified) | 3.3%
COC(=O)Cn1c(CN2CCc3ccccc3C2)nc2c1c(=O)n(C)c(=O)n2C | 28.7%
OC(COc1ccc(C2C=CCC2)cc1)CN1CCCCC1 (stereo unspecified) | 5.1%
COc1ccc(-c2nnc3ccc(SCC(=O)N4CCN(c5ccccc5)CC4)nn23)cc1OC | 152.1%
NC(N)=N/N=C(/c1ccccc1)c1ccc(O)cc1O | -7.1%[5.75 µM]
COc1ccccc1N1CCN(S(=O)(=O)c2ccc3c4c(cccc24)C(=O)N3)CC1 | 54.4%
CC(C)CCSc1nnc(Cn2c(=O)sc3ccccc32)n1C | 3.98µM*[single pt active]
Cn1c(C(=O)N2CCN(C3CCCCC3)CC2)cc2c(=O)n(C)c3ccccc3c21 | 3.98µM*[single pt active]
CCOC(=O)CNC(=O)CSc1nnc(-c2cccc(OC)c2)n1CC | 13.7%
CC(O)c1cc2c(cc1NC(=O)c1cnn3c1NC(c1ccco1)CC3C(F)(F)F)OCO2 (stereo unspecified) | 12.6%
O=C(Cn1ccc2ccccc2c1=O)N1CCN(c2cccc(Cl)c2)CC1 | 6.8%
c1ccc(CSc2nnnn2-c2ccc3c(c2)OCCO3)nc1 | -0.5%
C=CCN1C(c2ccc(OCC)cc2)=CS/C1=C(\C#N)c1nnc2n1CCCCC2 | 107.9%
C=C(C)COc1ccc(-c2nc(N)ncc2Oc2ccc(OC)cc2)c(O)c1 | 23.4%
Cc1cc(S(=O)(=O)N2CC(=O)N(CCc3ccccc3)C(=O)C2)ccc1F | 4.7%
O=C(c1ccc2c(c1)OCCO2)C1CCN(S(=O)(=O)c2ccccc2F)CC1 | 4.8%
Cn1c(SCC(=O)Nc2ccc3c(c2)OCCO3)nnc1-c1ccccn1 | 7.2%
CCOc1ccc(-n2cnnn2)cc1S(=O)(=O)Nc1c(C)cccc1C | 14.7%
Cc1c(C(=O)NCc2ccccn2)sc2nc(-c3ccccc3)cn12 | 148.9%
O=C(NCCCN1CCCC1)Nc1cccc2ccccc12 | -15.0%
COc1ccc(CC[n+]2cc(/N=C(\C)[O-])on2)cc1OC | -7.4%
COc1ccc(OC)c(C(=O)c2nc3c(n2O)CCCCC3)c1 | -0.6%
O=c1c2c(n3nnnc3n1-c1ccccc1)-c1ccccc1CC21CCCC1 | 6.3%
Cc1ccc2c(c1)N(CC(=O)OC(CC(C)C)C(=O)NC1CCCC1)C(=O)CO2 (stereo unspecified) | 34.0%
CC(C)c1ccc(NC(=O)C(c2ccc3c(c2)OCO3)N2CCN(C(=O)c3ccco3)CC2)cc1 (stereo unspecified) | 103.1%
Cc1cc(C)c(C#N)c(SCc2ccc(C#N)cc2)n1 | -0.9%
O=C(CCCCn1c(=O)[nH]c2ccccc2c1=O)N1CCN(c2cccc(C(F)(F)F)c2)CC1 | 92.7%
Cc1nc2sc3c(c2c(=O)[nH]1)CCC3 | 15.5%
Cn1c2ccccc2c2ncn(CCCN3CCOCC3)c(=O)c21 | 19.9%
CCSC1=NC(=O)/C(=C2/C=Cc3ccccc3N2CC)S1 | 13.5%
CC1CCCCC1NC(=O)CCS(=O)(=O)c1cccc2nonc12 (stereo unspecified) | 6.0%
C1CCN(c2nc3nonc3nc2N2CCCC2)C1 | -1.1%
COc1ccc(OC)c(S(=O)(=O)N2CCC(C(=O)NCc3ccccc3)CC2)c1 | 39.7%
Cc1cc(C)c2c(=O)[nH]n(C(C)C)c2n1 | -3.5%
CCCS(=O)(=O)N1CCN(C(=O)CCC2CCCC2)CC1 | 7.6%
Cc1cc(=O)[nH]c(SCC(=O)N2CCN(C(c3ccccc3)c3ccccc3)CC2)n1 | 73.1%
O=S(=O)(NCC(O)COCc1ccco1)c1cccs1 (stereo unspecified) | -2.0%
(cont.)
SMILES | AmpC nodet inh
COc1ccc(OC)c(S(=O)(=O)Nc2ccccc2SC)c1 | 5.1%
CC(C)(C)c1ccc(Cn2nnc3c(=O)[nH]c(C4CCN(C(=O)Cc5cccs5)CC4)nc32)cc1 | 91.5%
CCn1c(SCc2nc3ccccc3[nH]2)nnc1-c1cnccn1 | 12.4%
O=C(O)CCn1c(-c2ccccc2)cc2c1CCCC2=O | -5.8%
O=S(=O)(NCC(c1cccnc1)N1CCOCC1)c1cccs1 (stereo unspecified) | -3.8%
CCOC(=O)N1CCC(NC(=O)C(Cc2ccccc2)NC(=O)c2ccco2)CC1 (stereo unspecified) | 26.1%
CCOCCCNC(=O)c1c(C)c(C(=O)OCC)n(C)c1C | 2.3%
CCc1ccc(NS(=O)(=O)c2ccc3[nH]cc(C(=O)NCC4CCCO4)c(=O)c3c2)cc1 (stereo unspecified) | 64.7%
CCC(=O)c1ccc(OCC(O)Cn2c(C)nc3ccccc32)cc1 (stereo unspecified) | 41.5%
Cc1ccc(S(=O)(=O)N2CCCC(C(=O)NCCc3ccc4c(c3)OCO4)C2)cc1 (stereo unspecified) | 33.0%
CCN(CC(=O)NC1CCS(=O)(=O)C1)C(=O)COc1ccccc1-c1ccccc1 (stereo unspecified) | 57.4%
NC(N)=NCCSSCCN=C(N)N | ?
COc1ccc(C(=O)CSc2nnnn2Cc2ccccc2)cc1 | 3.3%
c1coc(Cn2c(-c3ccco3)nc3ccccc32)c1 | 29.9%
CCC(C)N(C)Cc1cccc(C2(O)CCN(S(=O)(=O)c3ccc(F)cc3)CC2)c1 (stereo unspecified) | 23.0%
CCOC(=O)C1CCN(C(=O)CN(c2ccc(OC)cc2)S(=O)(=O)c2c(C)noc2C)CC1 | 102.2%
CCOC(=O)Cn1c2c(c(-c3ccccc3OC)cc1=O)CCCC2 | 13.7%
Cc1cc(C)c(S(=O)(=O)n2nc(C)c(Br)c2C)c(C)c1 | 0.1%
CCCCCc1nc2c(=O)n(C)c3ccccc3c2o1 | 40.2%
O=C(Nc1ccc(F)c(Cl)c1)c1ccc2c(=O)n3c(nc2c1)CCCCC3 | 15.9%
Cc1ccc(S(=O)(=O)NCC(c2ccccc2)N2CCN(CCC#N)CC2)cc1 (stereo unspecified) | 41.8%
COC(=O)c1cc(-c2ccc3ccccc3c2)[nH]c(=O)c1C#N | 0.6%[5.75 µM]
Cc1cc(N2CCN(c3cccc(C(F)(F)F)c3)CC2)n2nc(C)nc2n1 | 75.7%
COc1ccc(-c2nnc(CSc3nc4ccccc4c(=O)n3CC(C)C)o2)cc1OC | 107.9%
CNc1nnc(-c2cc3ccccc3oc2=O)s1 | 2.5%
CC(C)c1ccccc1NC(=O)c1cnccn1 | -5.5%
Cc1ccc2cccc(NC(=O)C(F)(F)F)c2n1 | 14.2%
COc1ccccc1-c1cncnc1NCc1ccccc1 | 3.8%
c1ccc2c(c1)CCC[C@H]2C1=NCCN1 | -0.6%
CCOC(=O)N1CCC2(O)CCCCC2C1c1ccc(F)cc1 (stereo unspecified) | -6.7%
O=S(=O)(Nc1nc2ccccc2nc1NCc1ccco1)c1ccc(Cl)cc1 | -4.4%
O=C(CCN1CCN(c2ccc(F)cc2)CC1)Nc1ccccc1F | 55.3%
CC[N+](CC)(CC)CCOc1ccc(/C=C\c2ccccc2)cc1 | 78.3%
Nc1c(C(=O)OCC2CCCO2)c2nc3ccccc3nc2n1-c1ccc2c(c1)OCCO2 (stereo unspecified) | 150.0%
O=C1CC(N2CCN(c3ccc(F)cc3)CC2)C(=O)N1Cc1ccc(N2CCCC2=O)cc1 (stereo unspecified) | 76.6%
O=C(NCc1ccccn1)c1ccccc1Cl | -2.9%
O=C(COc1ccccc1F)c1ccc(O)cc1O | -13.5%
CN1CCN(c2ncc3nc(-c4cccs4)c(=O)n(C[C@H]4CCCO4)c3n2)CC1 | 121.1%
CCn1c(=N)c(C(=O)NCc2cccnc2)cc2c(=O)n3cccc(C)c3nc21 | 0.7%
Cn1c(Cc2ccccc2)nnc1SCCC(=O)Nc1ccccc1 | 9.4%
c1ccc(-n2c(-c3ccncc3)nnc2N2CCOCC2)cc1 | -3.6%
CN(CCc1ccccn1)c1ccc2c(c1)C(=O)c1ccccc1-2 | 14.1%[5.75 µM]
CCOC(=O)N1CCN(C(=O)CS(=O)Cc2nc(-c3cccc(C)c3)oc2C)CC1 (stereo unspecified) | 120.4%
CCCn1c(-c2ccc(F)cc2)nc2c(NCCCN3CCCCC3C)nc(C)nc21 (stereo unspecified) | 39.4%
COc1cccc(CNCCOCCO)c1OC | -5.4%
O=c1[nH]c2ccccc2n1CCCOc1ccccc1 | 17.7%
CC(O)(P(=O)(O)O)P(=O)(O)O | 1.3%[12.8 µM]
CN(C)c1ccc(N)cc1 | 38.7%
Cc1occc1-c1nnc(SCC(=O)N2CCOCC2)o1 | 11.0%
CN1CCN(c2ncc3nc(-c4ccc(Cl)cc4)c(=O)n(-c4ccccc4)c3n2)CC1 | 143.7%
O=c1c(-c2ccc(O)cc2)coc2cc(O)cc(O)c12 | -15.1%&-1.2%&-18.9%&-20.5%
COc1cccc(C2CC(c3ccc(C(C)C)cc3)n3nc(N)nc3N2)c1 (stereo unspecified) | 24.9%
C[C@H](N)c1cccc(Cl)c1Cl | 2.8%
Cc1cc(NC(=O)CSc2cn(CCNC(=O)c3ccc(Cl)cc3)c3ccccc23)no1 | 23.9%
CCOc1ccc(C2CC(=O)c3c([nH]c(C(=O)OC)c3C)C2)cc1OC (stereo unspecified) | 43.0%
Oc1c(CN2CCCCC2)cc(Br)c2cccnc12 | 1.9%
Cc1cc(SCC(=O)NC(=O)NCc2ccco2)nc2ccccc12 | -4.6%
Cc1cc(C(F)F)n2ncc(C(=O)NC3CCCCCC3)c2n1 | 13.2%
CCN(CC)CCCNC(=O)CC1Sc2ccccc2NC1=O (stereo unspecified) | -1.9%
COc1ccc(Br)cc1CNCCSc1nnnn1C | -8.0%

Reformatted: results already given
CCn1c(=N)c(C(=O)NCc2cccnc2)cc2c(=O)n3cccc(C)c3nc21
  AmpC nodet inh: 0.7%
Cn1c(Cc2ccccc2)nnc1SCCC(=O)Nc1ccccc1
  AmpC nodet inh: 9.4%
c1ccc(-n2c(-c3ccncc3)nnc2N2CCOCC2)cc1
  AmpC nodet inh: -3.6%
